# High-throughput results (PubChem)
# LASV entry inh: inhibitors of Lassa virus binding or cell entry; Lassa virus pseudotype entry inhibition, cell reporter; control for the full effect not named in the record; Potency, µM (top dose mostly 37.9 µM), inactives show top-dose activity change, negative = inhibition, usual class: inhibitors; 300,000 compounds, 1.2% hits; active means well fitted inhibition curve with a large enough effect; inconclusive means small, poorly fitted or top-dose-only effect, or effect the other way; inactive means flat fitted curve, though single readings scatter; tested in HEK293 cells; also: % is scaled to controls: 0 for no effect and ±100 for the full control effect; nearly all actives have a fitted effect of over 50% in size; luciferase read-out
# MARV entry inh: blocks Marburg virus binding to or entry into cells | Marburg virus pseudotyped entry inhibition, cell reporter; control for the full effect not named in the record; about a third of the inactives were read at about 46 µM | Potency, µM (top dose mostly 37.8 µM), without a hit: top-dose activity change, negative = inhibition, actives largely listed as inhibitors | 300,000 compounds, 1.8% hits | AID 540276; active = well fitted inhibition curve with a large enough effect; inconclusive = small, poorly fitted or top-dose-only effect, or effect the other way; inactive = flat fitted curve, though single readings scatter; tested in HEK293 cells; about a fifth of its hits are not listed in these tables; also: % is scaled to controls: 0 for no effect and ±100 for the full control effect; luciferase read-out
# Cruzain inh noDet: inhibitors of Trypanosoma cruzi cruzain without detergent. P25779. purified cruzain, Z-FR-AMC fluorescence, no detergent. Potency, µM, for inactives: max response, negative = inhibition, hits mostly inhibitors. 200,000 compounds, 2.3% hits. AID 1476;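 also: plate controls were enzyme without inhibitor for no effect and buffer without enzyme for full effect; nearly all actives have a fitted effect of over 40% in size; top concentration of the series not given in the record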
# Target sequence (P25779 123-467 limits assumed): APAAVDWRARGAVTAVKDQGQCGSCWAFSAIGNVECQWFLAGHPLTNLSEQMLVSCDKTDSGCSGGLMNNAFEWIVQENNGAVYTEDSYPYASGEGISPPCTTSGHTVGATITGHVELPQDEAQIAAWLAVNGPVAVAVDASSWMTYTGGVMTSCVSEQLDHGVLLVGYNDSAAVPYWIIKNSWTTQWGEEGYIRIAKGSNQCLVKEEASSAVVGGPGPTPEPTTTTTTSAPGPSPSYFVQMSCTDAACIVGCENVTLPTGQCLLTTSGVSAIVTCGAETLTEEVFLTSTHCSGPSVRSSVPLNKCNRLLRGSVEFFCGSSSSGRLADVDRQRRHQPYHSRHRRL
#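 Detergent-free condition (0.00005% Triton X-100) in acetate buffer pH 5.5 with DTT. 1.5 nM enzyme and compound were pre-mixed 15 min, then 2 uM Z-FR-AMC substrate added; reaction progress from fluorescence change between first and third reads (60 s).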
# 2A StopGo: FMDV 2A StopGo reporter, luciferase signal; human cells with a luciferase reporter of 2A StopGo recoding; control for the full effect not named in the record; Potency, µM (doses to about 57.9 µM), without a hit: top-dose signal change, negative = less light; 410,000 compounds, 1.2% hits; active = well fitted falling curve with a large enough effect; inconclusive = small, poorly fitted or top-dose-only effect; inactive = no such curve, though single readings can be large or run the other way; tested in HEK293T cells; also: % is scaled to controls: 0 for no effect and ±100 for the full control effect; nearly all actives have a fitted effect of over 45% in size; luciferase light after 4 h
# SARS PLpro yeast: inhibitors of SARS-CoV papain-like protease in yeast; Potency, µM (top dose mostly 32.9 µM), without a hit: top-dose activity, positive = growth rescue; S. cerevisiae expressing SARS-CoV PLpro, growth rescue; control for the full effect not named in the record; 330,000 compounds, 0.19% hits; AID 485353; active means well fitted rising curve with a large enough effect; inconclusive means small, poorly fitted or top-dose-only effect; inactive means no such curve, though single readings can be large or run the other way; also: 0% is about no effect; nearly all actives have a fitted effect of over 55% in size; growth read by luminescence after 48 h
# NS1 function inh: inhibitors of influenza NS1 protein function. 270,000 compounds, 0.4% hits. Potency, µM (top dose mostly 46.1 µM), inactives show at the highest dose activity, positive = more growth. S. cerevisiae slowed by influenza A NS1, growth recovery by OD600; active means well fitted rising curve with a large enough effect; inconclusive means small, poorly fitted or top-dose-only effect; inactive means no such curve, though single readings can be large or run the other way; also: nearly all actives have a fitted effect of over 50% in size
#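 OD600 was taken as the measure of yeast growth restored by compound in an NS1-expressing S. cerevisiae strain. Cells had been washed out of glucose medium and diluted 1:100 into galactose -URA medium, pH 6.0.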
# Cruzain Triton: blocks cruzain activity in presence of Triton detergent | purified cruzain, Z-FR-AMC fluorescence, 0.01% Triton | AID 1478 | 200,000 compounds, 0.43% hits | Potency, µM, for inactives: max response, negative = inhibition, hits mostly inhibitors;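 also: plate controls were neutral wells for no effect and buffer without enzyme for full effect; nearly all actives have a fitted effect of over 40% in size; top concentration of the series not given in the record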
#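 Z-FR-AMC hydrolysis (2 uM substrate) by cruzain (1.5 nM) monitored kinetically at ex 360/em 450 nm after 15 min room-temperature compound exposure; 0.01% Triton X-100, pH 5.5, 5 mM DTT.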
# RE007 growth inh: less growth of the S. pombe RE007 Vpr strain; S. pombe RE007 Vpr strain, BacTiter-Glo ATP luminescence, 24 h; control for the full effect not named in the record; Potency, µM (top dose mostly 92.2 µM), inactives show top-dose activity change, negative = less growth; 360,000 compounds, 0.21% hits; active = well fitted falling curve with a large enough effect; inconclusive = small, poorly fitted or top-dose-only effect; inactive = no such curve, though single readings can be large or run the other way;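 also: % is scaled to controls: 0 for no effect and ±100 for the full control effect; nearly all actives have a fitted effect of over 50% in size; the assay follows cell death caused by Vpr and the record does not say whether a fall means rescue or toxicity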
#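 Fission yeast RE007 carrying one integrated HIV-1 vpr copy, seeded at OD 0.01 in PMG+AL medium with 23 nL pinned compound. Grown 24 h at 30 degrees; viability read by BacTiter-Glo luminescence after 5 min.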
# Starred values were filed as active, the others as inactive; ? = inconclusive; · = no result given; & = joins results of further samples; [ ] = remark or other dose. Unless noted, calls follow the shape of the dose curve; as a rule, active = well fitted curve in the direction sought with a large enough effect; inconclusive = small, poorly fitted or top-dose-only effect, or another doubt; inactive = no such curve, though single readings can be large; an effect the other way counts as inactive or inconclusive. Potency is read from the fitted curve at half-maximal effect.
SMILES,LASV entry inh,MARV entry inh,Cruzain inh noDet,2A StopGo,SARS PLpro yeast,NS1 function inh,Cruzain Triton,RE007 growth inh
Cc1ccc(-c2ccc(=O)n(CC(=O)NC(C)c3ccccc3)n2)cc1 (centres undefined),·,·,4%,-20%,·,·,1.1%,·
O=C(O)c1ccc2cc[nH]c2c1,-4%,5%,5%,-22%,-5%,-10%,2.2%,1%
CCC(Sc1nc2ccccc2[nH]1)C(=O)Nc1cc(C)on1 (centres undefined),-7%,-4%,-8%,-11%,-4%,4%,0.9%,-2%
CCOC(=O)c1c(C)[nH]c(C)c1C(=O)CSc1nc2ccccc2n1CC,1%,1%,-13%,0%,?,-8%,-26%,-12%
COc1ccc(CCNC(=O)CSc2nc(C)nc3c2c(=O)n(C)c(=O)n3C)cc1OC,·,-8%,-5%,-17%,-1%,-36%,-6.3%,14%
COc1ccccc1-c1nn2c(C(F)(F)F)nnc2s1,2%,12%,3%,-6%,12%,?,-0.8%,-18%
CCc1ccc(S(=O)(=O)Nc2cc3c(cc2C)n(C)c(=O)n3C)cc1,·,·,·,?,8%,-23%,·,2%
COc1cccc(NC(=O)N2CCN(C(=O)C(Cc3ccc(OC)c(OC)c3)NC(C)=O)CC2)c1 (centres undefined),4%,1%,6%,7%,-1%,-5%,1.0%,-10%
O=C(NCCc1ccccc1)C1CCN(C2CCN(Cc3ccc(CO)o3)CC2)CC1,0%,24%[46.1 µM],·,-11%,-1%,7%,·,-26%
CC1(C)CCC[C@]2(C)[C@H]3CC(=O)O[C@]3(C)CC[C@@H]12,-13%,-1%,·,-20%,-3%,3%,·,3%
O=c1ccc2[n+]([O-])c3ccc(O)cc3oc-2c1,·,·,·,-21%,-6%,-51%,·,0%
O=C(c1ccc2c(c1)N(Cc1ccccc1F)C(=O)c1ccccc1S2=O)N1CCC(Cc2ccccc2)CC1 (centres undefined),?,?,-24%,?,·,·,-0.2%,·
O=C(NCc1ccccc1Br)c1ccc2nc(N3CCCCC3)sc2c1,·,21%[46.1 µM],-6%,44%[activator],·,·,-0.1%,·
O=C(c1ccncc1)c1ccc(NS(=O)(=O)c2ccc(Br)s2)cc1,20%,0%,?,·,4%,9%,6.0%,-8%
COCCCn1c(=O)c2sccc2n2c(CCCC(=O)NCc3cccc(OC)c3)nnc12,-3%&11%[46.1 µM],11%&11%[46.1 µM],0%,-7%&0%,?,2%,1.0%,-6%
Cc1cc(=O)[nH]c(SCc2nc3ccccc3s2)n1,2%,8%,-3%,14%,-1%,-11%,2.3%,17%
CCOc1cc(C2C3=C(CCCC3=O)NC3=C2C(=O)CCC3)ccc1OCCO,-16%,10%,-1%,-18%,7%,-2%,-4.1%,-4%
O=C(Nc1cccc(Cl)c1)C1=Cc2cc(Cl)ccc2OC1,-3%,1%,4%,-2%,5%,-3%,1.2%,2%
COc1ccc(/C=C/C(=O)NCCNC(=O)c2ccccc2)cc1OC,-2%,-27%[46.1 µM],·,-14%,0%,2%,·,-7%
O=C(C1=C[C@H](c2csc3ccccc23)C[C@H](OCc2ccc(CO)cc2)O1)N1CCN(Cc2ccccc2)CC1,·,·,·,0%,-4%,-37%,·,-3%
Cc1ccc2c(c1)-c1cc(C)nn1C(c1cc(Br)ccc1O)N2 (centres undefined),0%[46.1 µM],35%[46.1 µM],-7%,21%,·,·,-12%,·
CCOc1ccc(N(CC(=O)N2CCN(c3ccc(F)cc3)CC2)S(=O)(=O)c2c(C)noc2C)cc1,·,·,·,-7%,2%,12%,·,-2%
COc1ccc(/C=C/C(=O)Nc2cccc(S(=O)(=O)NC3=NCCCCC3)c2)cc1,·,·,·,8%,0%,9%,·,-7%
Cc1c(N/C(=N/S(=O)(=O)c2cc([N+](=O)[O-])ccc2Cl)c2ccccc2)c(=O)n(-c2ccccc2)n1C,-16%,10%[46.1 µM],·,-5%,4%,·,·,-1%
Cc1ccc(-c2nc(NC(=O)CSc3ncnc4sc5c(c34)CCC(C)C5)ns2)cc1 (centres undefined),24%[46.1 µM],29%[46.1 µM],8%,-11%,·,·,-1.6%,·
# (listing goes on)
SMILES,LASV entry inh,MARV entry inh,Cruzain inh noDet,2A StopGo,SARS PLpro yeast,NS1 function inh,Cruzain Triton,RE007 growth inh
COc1ccc(/C=N/NC(=O)c2cccnc2)cc1CN1CCOCC1,1%,-5%,·,6%,0%,-3%,·,-17%
Cc1ccc(S(=O)(=O)C(CNC(=O)C(=O)NCCc2ccccc2)c2ccco2)cc1 (centres undefined),-4%[46.1 µM],·,-2%,?,·,·,-2.9%,·
COc1ccc(CCNC(=O)c2ccc3c(c2)CCN3S(C)(=O)=O)cc1OC,0%[46.1 µM],-5%[46.1 µM],-1%,0%,·,·,2.7%,·
Cn1/c(=N/N=C/c2ccc(N3CCOCC3)cc2)sc2ccccc21,16%[46.1 µM],8%[46.1 µM],·,-7%,-1%,·,·,1%
O=C(NC(=S)NC1CCS(=O)(=O)C1)c1ccccc1Br (centres undefined),0%,0%,·,-9%,2%,13%,·,-18%
CC(=O)Nc1ccc(CN2CCCC(C(=O)c3ccc(C(F)(F)F)cc3)C2)cc1 (centres undefined),-19%[46.1 µM],?,·,-12%,0%,-2%,·,-2%
CCC(=O)N1CCc2cc(Br)cc(S(=O)(=O)CCC(=O)N3CCN(c4cccc(C(F)(F)F)c4)CC3)c21,?,?,-3%,0%,·,·,-0.3%,·
COc1ccc(OC)c(NC(=O)c2cc3c(cc2Cl)N2CCCCCC2=NS3(=O)=O)c1,-33%,-9%,·,-5%,?,·,·,?
COc1ccc(C(C)(C)C)cc1NC(=O)COC(=O)c1cc(SC)ccc1Cl,0%,?,3%,-27%,3%,9%,-5.6%,37%
Cn1c(Cc2c[nH]c3ccccc23)n[nH]c1=S,-2%,23%,-5%,5%,0%,-3%,0.1%,1%
Cc1cccc(C(=O)OC(C)C(=O)NC(=O)NC2CCCCC2)c1O (centres undefined),-21%[46.1 µM],0%,·,-6%,11%,·,·,16%
CCC(C)NC(=O)COC(=O)c1oc2ccccc2c1CSc1ccc(Cl)cc1 (centres undefined),16%,3%,25µM*,-21%,-3%,11%,-2.5%,17%
CCOc1ccc(CCNC(=O)C2Cc3ccccc3N2C(=O)CC)cc1 (centres undefined),7%[46.1 µM],·,-1%,-18%,·,·,1.2%,·
O=c1cc(Cl)c2ccccc2n1-c1ccccc1,27%[46.1 µM],-7%[46.1 µM],·,-3%,0%,-2%,·,4%
CC1CCN(C(=O)CSc2nc(=O)n3cc(Cl)ccc3n2)CC1,-12%,-8%[46.1 µM],·,-3%,0%,·,·,8%
CCCCCC1CC1C(=O)N/N=C/c1ccc(N(C)C)cc1 (centres undefined),0.46µM*,14%,-7%,5%,3%,-40%,-18%,-19%
Nn1c(SCC(=O)Nc2ccc(F)cc2)nnc1-c1cccnc1,-1%,?,-9%,-10%,0%,2%,4.0%,8%
O=C(Nc1ccc(C(F)(F)F)cc1)N1CCN(C(=O)c2ccco2)CC1,·,·,·,-8%,-1%,-18%,·,-7%
O=S(=O)(NCCc1ccccc1)c1cccc(S(=O)(=O)N2CCOCC2)c1,14%,-16%,3%,52%[activator],1%,-7%,-0.4%,6%
O=S(=O)(/C=C/c1ccccc1)N1CCN(c2nc(-c3ccccc3)nc3ccccc23)CC1,?,-13%[46.1 µM],·,11%,-5%,·,·,-6%
COc1cccc(-c2cc(C(=O)NCCCN3CCOCC3)no2)c1,9%,-6%[46.1 µM],·,18%,2%,1%,·,4%
COc1ccc(/C(O)=C2\C(=O)C(=O)N(c3cc(C)on3)C2c2ccc(OC)c(OC)c2)cc1OC (centres undefined),5%,3%&0%,?,-5%,2%,-6%,-0.9%,0%
COc1ccc(/C=N/NC(=O)CC(=O)NCc2cccnc2)cc1[N+](=O)[O-],4%,14%,·,-1%,-5%,5%,·,-22%
O=C(Nc1nccs1)c1cc(-c2ccco2)nc2ccccc12,-13%,?,?,-25%,16%,24%,-19%,-1%
NS(=O)(=O)c1ccc(CCNC(=O)CN2CCN(S(=O)(=O)c3ccccc3F)CC2)cc1,19%[46.1 µM],?,·,-18%,9%,·,·,-12%
# Next section.
SMILES,LASV entry inh,MARV entry inh,Cruzain inh noDet,2A StopGo,SARS PLpro yeast,NS1 function inh,Cruzain Triton,RE007 growth inh
Cc1ccc(NC2Sc3ccccc3NC2=O)cc1 (centres undefined),-30%[46.1 µM],?,·,?,-2%,·,·,26%
CCn1c(SCC(=O)N2CCCCC2C)nnc1-c1ccco1 (centres undefined),·,13%[46.1 µM],·,15%,1%,6%,·,-12%
CCOC(=O)C1=C(C)NC(=O)C1CC(=O)Nc1ccccc1 (centres undefined),·,·,-10%,·,-4%,3%,2.5%,·
O=C(COc1ccccc1Cl)Nc1ccccc1C(=O)NC1CC1,-2%,?,·,-7%,-2%,·,·,6%
COc1ccc(C)cc1S(=O)(=O)N1CCC2(CC1)OCCN2S(=O)(=O)c1ccccc1,-12%,-8%,·,35%[activator],·,·,·,3%
COc1ccc(OC)c(C(C[N+](=O)[O-])c2c(C)cc3ccccn23)c1 (centres undefined),?,?,·,22µM*,-5%,8%,·,?
O=C(NCCc1csc(-c2ccc(C(F)(F)F)cc2)n1)c1ccccc1Cl,-16%[46.1 µM],·,?,-27%,·,·,-11%,·
C/C(CCc1ccc2c(c1)OCO2)=N\NC(=O)c1ccccc1Br,-3%[46.1 µM],-9%[46.1 µM],·,-5%,-6%,·,·,-8%
O=c1c(N2CCN(c3ccc(F)cc3)CC2)csc2ccc(F)cc12,-19%[46.1 µM],·,-3%,-11%,·,·,-3.8%,·
Cc1ccc(S(=O)(=O)C(C#N)=C2N(C)c3ccccc3N2C)cc1,-6%,-1%[46.1 µM],·,20%,-1%,·,·,-6%
Nc1ccc(C(=O)C(=O)c2ccc(N)cc2)cc1,·,·,·,8%,-1%,-1%,·,-11%
CCS(=O)(=O)c1ncc(Cl)c(C(=O)Nc2ccccc2OC)n1,?,-16%[46.1 µM],·,3.5µM*,0%,1%,·,13%
